SARS PLpro yeast: inhibitors of SARS-CoV papain-like protease in yeast | S. cerevisiae expressing SARS-CoV PLpro, growth rescue; control for the full effect not named in the record | Potency, µM (series often up to 32.9 µM), for the others: at the highest dose activity, positive = growth rescue | hit rate 0.19% among 330,000; active means well fitted rising curve with a large enough effect; inconclusive means small, poorly fitted or top-dose-only effect; inactive means no such curve, though single readings can be large or run the other way; note: 0% is about no effect; nearly all actives have a fitted effect of over 55% in size; growth read by luminescence after 48 h
RE007 growth inh: less growth of the S. pombe RE007 Vpr strain. hit rate 0.21% among 360,000. S. pombe RE007 Vpr strain, BacTiter-Glo ATP luminescence, 24 h; control for the full effect not named in the record. AID 651644. Potency, µM (top dose mostly 92.2 µM), for inactives: at the top dose activity change, negative = less growth; active = well fitted falling curve with a large enough effect; inconclusive = small, poorly fitted or top-dose-only effect; inactive = no such curve, though single readings can be large or run the other way;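 note: % is set by controls: 0 for no effect and ±100 for the full control effect; nearly all actives have a fitted effect of over 50% in size; the assay follows cell death caused by Vpr and the record does not say whether a fall means rescue or toxicity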
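Fission yeast strain RE007, carrying one chromosomally integrated HIV-1 vpr copy, was seeded at OD 0.01 in PMG+AL medium with 23 nL pinned compound. After 24 h at 30 °C and 99% humidity, viability was read by BacTiter-Glo luminescence.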
StopGo reporter: FMDV 2A StopGo reporter, luciferase signal; Potency, µM (highest dose often 57.9 µM), without a hit: at the top dose signal change, negative = less light; hit rate 1.2% among 410,000; human cells with a luciferase reporter of 2A StopGo recoding; control for the full effect not named in the record; AID 1159524; active = well fitted falling curve with a large enough effect; inconclusive = small, poorly fitted or top-dose-only effect; inactive = no such curve, though single readings can be large or run the other way; tested in HEK293T cells; note: % is set by controls: 0 for no effect and ±100 for the full control effect; nearly all actives have a fitted effect of over 45% in size; luciferase light after 4 h
An asterisk follows results filed as active; [ ] = remark or other dose. Potency is the fitted concentration of half-maximal effect. An excerpt (hit frequency here may not be typical).

Start of the data: the first 4 records, ahead of the listing:
Screening C[C@H](CO)N1C[C@H](C)[C@@H](CN(C)Cc2ccc3c(c2)OCO3)Oc2c(NS(=O)(=O)c3cn(C)cn3)cccc2C1=O returned SARS PLpro yeast 2%, RE007 growth inh 2% and StopGo reporter 41%[activator].
`CCOC(=O)c1cccc(C2=CC(=O)CC(C)(C)C2)c1` gave SARS PLpro yeast 2%, RE007 growth inh -25% and StopGo reporter 11%.
For COc1ccc(OC)c(CN2CCN(C(=O)CNC(=O)c3ccc(C(C)(C)C)cc3)CC2)c1 the results were SARS PLpro yeast 7%, RE007 growth inh 2% and StopGo reporter -18%.
`COc1ccccc1OCCC(=O)OCC(=O)NCc1ccc(F)cc1` gave SARS PLpro yeast 9%, RE007 growth inh 5% and StopGo reporter -3%.

The whole of this part, from the first entry:
Screening C[C@H](CO)N1C[C@H](C)[C@@H](CN(C)Cc2ccc3c(c2)OCO3)Oc2c(NS(=O)(=O)c3cn(C)cn3)cccc2C1=O returned SARS PLpro yeast 2%, RE007 growth inh 2% and StopGo reporter 41%[activator].
`CCOC(=O)c1cccc(C2=CC(=O)CC(C)(C)C2)c1` gave SARS PLpro yeast 2%, RE007 growth inh -25% and StopGo reporter 11%.
For COc1ccc(OC)c(CN2CCN(C(=O)CNC(=O)c3ccc(C(C)(C)C)cc3)CC2)c1 the results were SARS PLpro yeast 7%, RE007 growth inh 2% and StopGo reporter -18%.
`COc1ccccc1OCCC(=O)OCC(=O)NCc1ccc(F)cc1` gave SARS PLpro yeast 9%, RE007 growth inh 5% and StopGo reporter -3%.
`Cc1ccc(S(=O)(=O)N2CCOCC2)cc1NC(=O)COC(=O)c1cncc(Br)c1` gave SARS PLpro yeast 3%, RE007 growth inh 0% and StopGo reporter -18%.
For CN(C)C(=O)COC(=O)c1ccccc1NC(=O)c1ccco1 the results were SARS PLpro yeast 0%, RE007 growth inh 3% and StopGo reporter -4%.
For Cc1[nH][nH]c(=O)c1/C=N/N1CCOCC1 the results were SARS PLpro yeast 2%, RE007 growth inh 2% and StopGo reporter 7%.
For COc1cc2c(C#Cc3cccnc3)c(-c3ccsc3)oc(=O)c2cc1OC the results were SARS PLpro yeast 6%, RE007 growth inh -12% and StopGo reporter -17%.
Screening Cc1ccsc1C(=O)N1CCN(c2ncccn2)CC1 returned SARS PLpro yeast 16%, RE007 growth inh -4% and StopGo reporter -10%.
For COc1ccc([C@H]2CC(=O)C=C(/C=C/c3ccccc3)C2)cc1 the results were SARS PLpro yeast -4%, RE007 growth inh 8% and StopGo reporter 0%.
Screening CCc1ccc([C@@H]2CC=C(C(=O)O)[C@H](c3ccc(F)cc3)N2S(=O)(=O)c2ccc(C)cc2)cc1 returned SARS PLpro yeast 0%, RE007 growth inh 1% and StopGo reporter 7%.
For CSc1nc(N)nc2c1ncn2CC(=O)N[C@H](C)c1cccc2ccccc12 the results were SARS PLpro yeast 2%, RE007 growth inh -10% and StopGo reporter -26%.
`CC(O)[C@H]1CC[C@H]2[C@@H]3CC[C@H]4C[C@@H](O)CC[C@]4(C)[C@H]3C(=O)C[C@]12C` (stereo partly drawn) gave SARS PLpro yeast -5%, RE007 growth inh -11% and StopGo reporter -17%.
Screening Oc1ccc(/C=N/n2cc(-c3ccccc3)[nH]c2=S)cc1 returned SARS PLpro yeast 0%, RE007 growth inh 1% and StopGo reporter 20%.
For Cc1[nH]c2ccccc2c1SCC(=O)N1CCCCCC1 the results were SARS PLpro yeast -1%, RE007 growth inh 16% and StopGo reporter 11%.
COc1ccccc1OCc1ccc(C(=O)Nc2ccccc2)cc1 was read as SARS PLpro yeast 3%, RE007 growth inh 15% and StopGo reporter 27%.
For N#Cc1ccc(C23OCCN2CCn2c3c3ccccc3[n+]2[O-])cc1 (stereo not drawn) the results were SARS PLpro yeast 7%, RE007 growth inh -11% and StopGo reporter 1%.
CC1(c2ccccc2Br)NC(=O)N(CC(=O)NC2CCCCC2)C1=O (stereo not drawn) was read as SARS PLpro yeast -10%, RE007 growth inh 3% and StopGo reporter 10%.
For O=C(Nc1ccc(OC(F)(F)F)cc1)c1ccccc1-n1cnnn1 the results were SARS PLpro yeast 0%, RE007 growth inh -7% and StopGo reporter -5%.
`Cc1ccc2nc(COc3ccc(Cl)cc3)cc(=O)n2c1` gave SARS PLpro yeast 2%, RE007 growth inh 3% and StopGo reporter 41%[activator].
`COC(=O)C1=C(c2ccc(F)cc2F)C[C@@H]2CC[C@H]1N2C(=O)NCCO` gave SARS PLpro yeast -7%, RE007 growth inh 3% and StopGo reporter 3%.
For COc1ccc(C(=O)OCC(=O)Nc2ccc(N3CCOCC3)cc2)cc1OC the results were SARS PLpro yeast -4%, RE007 growth inh -17% and StopGo reporter -2%.
Nc1c(Cl)cc(C2=NCCn3c2c2ccc([N+](=O)[O-])cc2[n+]3[O-])cc1Cl was read as SARS PLpro yeast 1%, RE007 growth inh -10% and StopGo reporter -15%.
`COc1cc(CCCN2CCNC[C@H]2Cc2ccc(O)cc2)cc(OC)c1OC` gave SARS PLpro yeast 0%, RE007 growth inh 3% and StopGo reporter -1%.
Screening CCc1noc(C)c1C(=O)N(CC)CC(=O)Nc1cc(Cl)ccc1C returned SARS PLpro yeast 3%, RE007 growth inh -2% and StopGo reporter -5%.
`CN(CC(=O)Nc1ccccc1C(F)(F)F)C(=O)c1ccccc1Sc1ccccc1C#N` gave SARS PLpro yeast -3%, RE007 growth inh 2% and StopGo reporter -10%.
Screening C=CCNC(=S)/C(=C(/[O-])c1ccccc1Br)[n+]1ccccc1 returned SARS PLpro yeast 0%, RE007 growth inh 2% and StopGo reporter 2%.
Screening COc1ccc(S(=O)(=O)Nc2cccc3c2O[C@H](CN(C)Cc2ccc(Cl)c(Cl)c2)[C@@H](C)CN([C@H](C)CO)C3=O)cc1 returned SARS PLpro yeast inconclusive, RE007 growth inh -1% and StopGo reporter 22%.
Screening COc1ccc(OC)c(C(=O)N(C[C@H]2CC[C@@H]([C@@H]3CC[C@H](CO)O3)O2)C(C(=O)NC(C)(C)C)c2ccc(-c3ccccc3)cc2)c1 (stereo partly drawn) returned SARS PLpro yeast 18%, RE007 growth inh 9% and StopGo reporter -5%.
Screening CC#C[C@@H](CC)c1ccc2ccn(C)c2c1 returned SARS PLpro yeast -25%, RE007 growth inh -1% and StopGo reporter 20%.
`C[C@]12C(=O)N(c3cccc(Cl)c3)C(=O)N1[C@@H]1c3ccccc3OC[C@@H]1[C@H]2c1ccccc1` gave SARS PLpro yeast 0%, RE007 growth inh -2% and StopGo reporter -27%.
COc1cc(C#Cc2ccc3cc(C(C)(C)O)oc(=O)c3c2)cc(OC)c1 was read as SARS PLpro yeast 0%, RE007 growth inh 4% and StopGo reporter 24%.
Screening COc1cc(C=NNc2ccc(S(=O)(=O)Nc3ccccc3C(=O)O)cc2[N+](=O)[O-])ccc1O returned SARS PLpro yeast 9%, RE007 growth inh -7% and StopGo reporter -5%.
Screening CC(C)(C)OC(=O)C[C@H]1C/C=C\C[C@H](CC(=O)NCCO)C(=O)NC[C@@H](c2ccccc2)OC1=O returned SARS PLpro yeast 1%, RE007 growth inh -2% and StopGo reporter 4%.
For COc1cccc2sc3cc(NCc4ccc5c(c4)OCO5)ccc3c(=O)c12 the results were SARS PLpro yeast -2%, RE007 growth inh 3% and StopGo reporter 22%.
CC(C)CCN(C(=O)c1ccncc1)c1c(N)n(Cc2ccccc2)c(=O)[nH]c1=O was read as SARS PLpro yeast -1%, RE007 growth inh 7% and StopGo reporter -8%.
Screening O=C(NC1CCN(Cc2ccc(Cl)cc2)CC1)c1cn(-c2ccccc2)nc1-c1cccnc1 returned SARS PLpro yeast -2%, RE007 growth inh -15% and StopGo reporter -14%.
For COC(=O)C1=C(c2ccc(C(C)=O)cc2)C[C@@H]2CC[C@H]1N2C the results were SARS PLpro yeast 1%, RE007 growth inh -4% and StopGo reporter 1%.
CC(=O)NCc1ccc(C(=O)CSc2nnc(C3CC3)n2C2CC2)cc1 was read as SARS PLpro yeast 1%, RE007 growth inh 4% and StopGo reporter -18%.
For Cc1sc2nc(CN3CCOCC3)nc(NS(=O)(=O)c3cc(Cl)ccc3Cl)c2c1C the results were SARS PLpro yeast -4%, RE007 growth inh -17% and StopGo reporter 17%.
`O=C(CN1C(=O)NC2(CCCc3ccccc32)C1=O)NCc1cccs1` (stereo not drawn) gave SARS PLpro yeast 7%, RE007 growth inh 5% and StopGo reporter -6%.
Cc1ccc(NC(=O)C2COc3ccccc3O2)cc1S(=O)(=O)N1CCCCC1 (stereo not drawn) was read as SARS PLpro yeast -2%, RE007 growth inh 24% and StopGo reporter inconclusive.
`CCOc1ccc(N=C2Sc3nc4ccc(C)cc4cc3CN2CCOC)cc1` gave SARS PLpro yeast -1%, RE007 growth inh -14% and StopGo reporter -20%.
O=c1ccc2c(-c3ccccc3S(=O)(=O)O)c3ccc(O)c(O)c3oc-2c1O was read as SARS PLpro yeast -9%, RE007 growth inh inconclusive and StopGo reporter 7.1µM*.
For Cn1c(CC(=O)NNC(=O)c2ccc(F)cc2F)nc2ccccc21 the results were SARS PLpro yeast -2%, RE007 growth inh -9% and StopGo reporter -9%.
For CC/C=C(\NC(C)=O)c1ccccc1 the results were SARS PLpro yeast 1%, RE007 growth inh 12% and StopGo reporter -4%.
Screening COc1ccc(S(=O)(=O)N(C)C[C@H]2Oc3ccc(NS(=O)(=O)c4ccccc4)cc3C(=O)N([C@H](C)CO)C[C@@H]2C)cc1 returned SARS PLpro yeast 2%, RE007 growth inh 2% and StopGo reporter -3%.
Screening O=C(CCc1nc(-c2ccccc2)no1)NCc1ccccc1CN1CCOCC1 returned SARS PLpro yeast -2%, RE007 growth inh 0% and StopGo reporter -2%.
`Cn1cc(C(=O)NCC(=O)Nc2ccccc2Br)cn1` gave SARS PLpro yeast -1%, RE007 growth inh 2% and StopGo reporter -15%.
Screening COC(=O)C1=C(c2ccccc2OCc2ccccc2)C[C@@H]2CC[C@H]1N2C(=O)NCc1ccc(OC)cc1 returned SARS PLpro yeast 2%, RE007 growth inh 3% and StopGo reporter -11%.
Screening Cc1cccc(C)c1NC(=O)CN(C)C(=O)CCC(=O)c1ccccc1 returned SARS PLpro yeast -2%, RE007 growth inh 7% and StopGo reporter 0%.
`COc1ccc(OCCCC(=O)Nc2ccc(OC)c(S(=O)(=O)N3CCOCC3)c2)cc1` gave SARS PLpro yeast 8%, RE007 growth inh -12% and StopGo reporter 0%.
For CN(C)C(=O)CCc1ccc2c3c([nH]c2c1)[C@]1(CCC2CCCC2)[C@@H](C(=O)N2CCOCC2)C[C@H](CC(=O)NCCN2CCOCC2)C(=O)N1CC3 the results were SARS PLpro yeast -11%, RE007 growth inh 7% and StopGo reporter 7%.
For COc1ccc(NC(=O)Nc2cccc3c2O[C@H](CN(C)C(=O)Nc2ccc4c(c2)OCO4)[C@@H](C)CN([C@H](C)CO)C3=O)cc1 the results were SARS PLpro yeast 11%, RE007 growth inh -8% and StopGo reporter 18%.
Screening CCOc1cccc2sc(N(CCN(CC)CC)C(=O)c3cccc([N+](=O)[O-])c3)nc12 returned SARS PLpro yeast -6%, RE007 growth inh -2% and StopGo reporter 20%.
CC(=O)Nc1ccc(S(=O)(=O)NCCC(=O)NCCOc2ccccc2)cc1 was read as SARS PLpro yeast -3%, RE007 growth inh 20% and StopGo reporter -12%.
For CC[C@]12c3[nH]c4ccccc4c3CCN1C(=O)C(CC(=O)NC(C)(C)C)C[C@@H]2C(=O)N1CCN(C(=O)C2CC2)CC1 (stereo partly drawn) the results were SARS PLpro yeast 3%, RE007 growth inh 8% and StopGo reporter -10%.
CCOC(=O)C1=CN(Cc2ccco2)S(=O)(=O)N(C)C1c1cccc(OC)c1 (stereo not drawn) was read as SARS PLpro yeast 8%, RE007 growth inh 8% and StopGo reporter 13%.
Screening Cc1csc(SCC(=O)Nc2ccc(C)c(F)c2)n1 returned SARS PLpro yeast 6%, RE007 growth inh -5% and StopGo reporter 29%.
`Cc1ccc(S(=O)(=O)N2CCN(c3nc(CN4CCCC4)nc4sc(C)c(C)c34)CC2)cc1` gave SARS PLpro yeast -2%, RE007 growth inh -4% and StopGo reporter -22%.
For CC(=O)Nc1ccc(NC(=O)C/C(C)=N/NC(N)=S)cc1 the results were SARS PLpro yeast 11µM*, RE007 growth inh -7% and StopGo reporter -16%.
Screening CC[C@]12c3[nH]c4ccc(OC)cc4c3CCN1C(=O)C(CC(=O)NCCCn1ccnc1)C[C@@H]2C(=O)N1CCN(C(=O)C2CC2)CC1 (stereo partly drawn) returned SARS PLpro yeast 5%, RE007 growth inh -2% and StopGo reporter -16%.
`Cc1nn(CC(=O)NC2(C)CCS(=O)(=O)C2)c(C)c1S(=O)(=O)N(C)C` (stereo not drawn) gave SARS PLpro yeast inconclusive, RE007 growth inh -1% and StopGo reporter -12%.
For Cc1ccc(C(NC(=O)CN2C(=O)NC3(CCCC3)C2=O)c2ccccc2)cc1 (stereo not drawn) the results were SARS PLpro yeast -4%, RE007 growth inh 6% and StopGo reporter -15%.
